Vaccinia mCherry: qHTS for Stage-Specific Inhibitors of Vaccinia Orthopoxvirus: mCherry Reporter Primary qHTS | Vaccinia virus mCherry reporter infection, fluorescence; about a quarter of the inactives have no number | Potency, µM (series often up to 36.5 µM), for inactives: top-dose activity change, negative = inhibition, hits mostly inhibitors | hit rate 0.63% among 310,000; active = well fitted inhibition curve with a large enough effect; inconclusive = small, poorly fitted or top-dose-only effect; inactive = no such curve, though single readings can be large or run the other way; tested in A549 cells; note: nearly all actives have a fitted effect of over 35% in size; inactives centre near -10
Vaccinia Venus: qHTS for Stage-Specific Inhibitors of Vaccinia Orthopoxvirus: Venus Reporter Primary qHTS. Vaccinia virus Venus reporter expression, fluorescence. Potency, µM (doses to about 36.5 µM), for inactives: at the highest dose activity change, negative = inhibition, usual class: inhibitors. hit rate 0.46% among 330,000. AID 720580, 2013; active means well fitted inhibition curve with a large enough effect; inconclusive means small, poorly fitted or top-dose-only effect; inactive means no such curve, though single readings can be large or run the other way; tested in A549 cells; note: nearly all actives have a fitted effect of over 30% in size; inactives centre near -10
* hit, by the source's call; i = inactive; u = inconclusive; x = no result given. % is set by controls: 0 for no effect and ±100 for the full control effect; potency is the fitted concentration of half-maximal effect.

SMILES	Vaccinia mCherry	Vaccinia Venus
CCc1ccc2c(c1)NC(=O)C2(C)Cc1cccc(F)c1 (centres undefined)	10%	-10%
Cc1cccc(N(C(=O)CCC(=O)Nc2ccccn2)C(C(=O)NC(C)C)c2ccc(O)cc2)c1 (centres undefined)	x	-17%
O=C(Cn1[nH]c(=O)c2ccccc2c1=O)N1CC=C(c2ccccc2)CC1	-25%	-24%
Cc1nc(Nc2ccc3c(c2)OCCO3)c2c(C)c(C)sc2n1	-19%	-27%
Cc1nn(CC#N)c(=O)n1N(C)c1ncc(C(F)(F)F)cc1Cl	-2%	-4%
COc1ccc(C2=NOC(Cn3nc(-c4ccccc4)cc3C(=O)NCc3ccc(C)cc3)C2)cc1 (centres undefined)	i	-7%
CCOC(=O)CC(=O)Nc1c(C)cc(C)cc1C	-8%	-7%
COc1ccc(CCN2C(=O)C3C4CCC(C4=C(C)C)C3C2=O)cc1OC (centres undefined)	-17%	-8%
O=C(CCc1ccccc1)NCC(c1ccco1)N1CCc2ccccc21 (centres undefined)	-11%	u
O=C(Cn1nnc(-c2ccccc2NC(=O)c2ccccc2F)n1)NCc1ccco1	-9%	5%
CCN(CC)c1ccc(C(=O)Nc2ccccc2)cc1[N+](=O)[O-]	-21%	-18%
C[C@H]1CN([C@@H](C)CO)C(=O)c2cccc(NC(=O)C3CC3)c2O[C@H]1CN(C)Cc1ccc(C(F)(F)F)cc1	-14%	-11%
C=CCOc1nc2c(c(=O)n(C)c(=O)n2C)n1C	-1%	-8%
Cc1ccc(C(=O)Nc2sc(C)c(-c3ccccc3)c2C(N)=O)cc1[N+](=O)[O-]	i	-11%
CSCCC(NC(=O)c1ccc(Cl)cc1)C(=O)OCC(=O)Nc1cc(Cl)ccc1C (centres undefined)	-9%	-7%
CC(=O)c1c(C)[nH]c(C(=O)Nc2ccccc2N2CCOCC2)c1C	i	-15%
O=C(Cn1c(=O)oc2cc(S(=O)(=O)N3CCCC3)ccc21)N1CCN(C2CCCCC2)CC1	-8%	-15%
Cc1ccc(Cl)cc1NC(c1ccc(F)cc1)c1nnc(-c2ccccc2)o1 (centres undefined)	-5%	-8%
CCCCN(C(=O)C1CCC1)c1c(N)n(CC(C)C)c(=O)[nH]c1=O	4%	-1%
CC1=C(c2ccc(C)cc2)S(=O)(=O)N(CC(=O)O)C1=O	-3%	0%
CC(C)C[C@H](NC(=O)c1[nH]cnc1C(=O)N[C@H](C)c1ccccc1)C(=O)OC(C)(C)C	-18%	u
COc1cc(C(CCN2CCN(c3ccccc3)CC2)c2c(OC)cc(OC)c3ccc(=O)oc23)cc(OC)c1OC (centres undefined)	10%	-10%
C#Cc1ccc([C@H]2C=C(C(=O)OCC=C)O[C@@H](OCc3ccc(CO)cc3)C2)cc1	i	-8%
Cc1ccc(N(CCC#N)C(=O)CSc2ccc3c(c2)OCCO3)cc1	x	-24%
CN1CCN(NC(=O)c2cc(-c3cccc(Cl)c3)nc3ccccc23)CC1	i	-1%

Some of these compounds in order of SMILES length, ascending.
SMILES	Vaccinia mCherry	Vaccinia Venus
CCOC(=O)CC(=O)Nc1c(C)cc(C)cc1C	-8%	-7%
C=CCOc1nc2c(c(=O)n(C)c(=O)n2C)n1C	-1%	-8%
CCc1ccc2c(c1)NC(=O)C2(C)Cc1cccc(F)c1 (centres undefined)	10%	-10%
Cc1nc(Nc2ccc3c(c2)OCCO3)c2c(C)c(C)sc2n1	-19%	-27%
O=C(CCc1ccccc1)NCC(c1ccco1)N1CCc2ccccc21 (centres undefined)	-11%	u
CC1=C(c2ccc(C)cc2)S(=O)(=O)N(CC(=O)O)C1=O	-3%	0%
Cc1nn(CC#N)c(=O)n1N(C)c1ncc(C(F)(F)F)cc1Cl	-2%	-4%
CCN(CC)c1ccc(C(=O)Nc2ccccc2)cc1[N+](=O)[O-]	-21%	-18%
CC(=O)c1c(C)[nH]c(C(=O)Nc2ccccc2N2CCOCC2)c1C	i	-15%
CCCCN(C(=O)C1CCC1)c1c(N)n(CC(C)C)c(=O)[nH]c1=O	4%	-1%
CSCCC(NC(=O)c1ccc(Cl)cc1)C(=O)OCC(=O)Nc1cc(Cl)ccc1C (centres undefined)	-9%	-7%
O=C(Cn1c(=O)oc2cc(S(=O)(=O)N3CCCC3)ccc21)N1CCN(C2CCCCC2)CC1	-8%	-15%
CC(C)C[C@H](NC(=O)c1[nH]cnc1C(=O)N[C@H](C)c1ccccc1)C(=O)OC(C)(C)C	-18%	u
COc1cc(C(CCN2CCN(c3ccccc3)CC2)c2c(OC)cc(OC)c3ccc(=O)oc23)cc(OC)c1OC (centres undefined)	10%	-10%
C[C@H]1CN([C@@H](C)CO)C(=O)c2cccc(NC(=O)C3CC3)c2O[C@H]1CN(C)Cc1ccc(C(F)(F)F)cc1	-14%	-11%

Continuation:
SMILES	Vaccinia mCherry	Vaccinia Venus
CCCC(=O)c1ccc(-c2ccccc2)cc1	x	-12%
O=C(CN1C(=O)NC2(CCCC2)C1=O)c1ccc(Cl)s1	-11%	-3%
CC(=O)Nc1ccc(S(=O)(=O)NC2(C(F)(F)F)NC(=O)N(c3ccc(Cl)cc3)C2=O)cc1 (centres undefined)	-11%	4%
Cc1ccc(-c2nnn(CC(=O)N3C(C)CCCC3C)n2)cc1 (centres undefined)	-19%	-22%
COc1c(Cl)cc(Cl)cc1C(=O)Nc1ccccc1N1CCN(C(C)=O)CC1	3%	0%
O=C(COC(=O)CCC(=O)N1CCOCC1)Nc1ccc(Br)cc1Br	0%	-10%
CN[C@H]1C[C@H]2c3[nH]c4ccc(-c5cccc(C)c5)cc4c3CCN2C[C@H]1[C@H](C)O	u	u
Cc1cc(C=C2C(=O)c3ccccc3C2=O)c(C)n1-c1ccc(Cl)cc1	-14%	-4%
CC(C)c1ccc(N2C(=O)CC(Sc3ncn[nH]3)C2=O)cc1 (centres undefined)	-7%	-1%
COc1ccc(-c2cc(CCCC(=O)NCCc3cc(OC)ccc3OC)no2)cc1	-29%	-19%
CCOc1ccc(CN2CCN(S(=O)(=O)c3ccc(NC(C)=O)cc3)CC2)cc1OC	i	-20%
Cc1c(NC(=O)c2ccc(F)cc2)c(=O)n(-c2ccccc2)n1C	i	-4%
CCOc1ccccc1N(C)C(=O)C1CCN(S(=O)(=O)c2cccc3nonc23)CC1	x	0%
CCN=C1S/C(=C\c2ccc(N3CCOCC3)cc2C)C(=O)N1CC	-17%	-4%
Cc1cc(NC(=O)CSc2nnc(-c3ccccc3Cl)o2)no1	-20%	-9%
COc1ccc(-c2cn3c(n2)sc2cc(C(=O)NCCCN4CCN(C)CC4)ccc23)cc1	u	u
Cc1cc(C)c(N)cc1C	-13%	-3%
O=C(c1ccco1)N1CCN(C(=O)c2cnn3cccnc23)CC1	i	8%
Cc1ccc(N2CC(C(=O)Nc3nnc(SCc4cccnc4)s3)CC2=O)cc1 (centres undefined)	-4%	-1%
CC1CCc2nn(CC(=O)NCCC3=CCCCC3)cc2C1 (centres undefined)	-7%	-16%
CCCCCCCCOc1ccc(C(=O)O)cc1	-20%	-16%
O=S(=O)(NCc1ccc2c(c1)OCO2)c1cccc2cccnc12	i	-25%
COc1ccc(Br)cc1S(=O)(=O)N1CCOCC1	-14%	-3%
COc1ccc2oc(=O)c(C(=O)Nc3cccc(C)c3)cc2c1	-3%	-9%
Cc1cccc(NC(=S)NCCC(c2ccccc2)c2ccccc2)c1	i	-4%
Next section:
SMILES	Vaccinia mCherry	Vaccinia Venus
CC(NC(=O)Cc1ccc(S(=O)(=O)N2CCOCC2)s1)c1ccc(Cl)cc1Cl (centres undefined)	-2%	-15%
O=C(COC(=O)c1ccc2c(c1)OCO2)NC1CCS(=O)(=O)C1 (centres undefined)	x	-18%
COC(=O)C[C@@H]1C[C@H]2c3cc(NC(=O)C4CCC4)ccc3O[C@H]2[C@@H](CO)O1	i	-13%
O=C(/C=C/c1cccc(Cl)c1)NCc1ccccc1	-13%	-15%
CC(C)(C)NC(=O)c1cccc(NC(=O)c2ccc3c(c2)C(=O)N(C(C)(C)C)C3=O)c1	i	-17%
COC1=C(C)C(O)=C(C(=O)/C=C/c2ccccc2)C(=O)C1(C)C	11µM*	u
O=C(Nc1nc(-c2ccco2)c(-c2ccco2)s1)c1ccc(F)cc1F	i	-2%
CCOC(=O)c1c(C)[nH]c(C(=O)CN2C(=O)NC3(CCCC3)C2=O)c1C	-3%	-4%
COc1cc(OC)cc(C(=O)NCC(=O)NCC(c2ccco2)N2CCCCC2)c1 (centres undefined)	-20%	-7%
c1cn2c(NC3CCCC3)c(-c3ccc(N4CCOCC4)cc3)nc2cn1	u	-22%
CCCc1cc(=O)[nH]c(SCc2cc(=O)oc3c(C)c(C)ccc23)n1	-6%	5%
COc1ccc(NC(=O)C(NS(=O)(=O)c2cccc3nsnc23)c2ccccc2)cc1 (centres undefined)	-7%	-7%
Cc1ccc2nc(SCC(=O)N3CCN(C(=O)c4ccco4)CC3)[nH]c2c1	-12%	-11%
O=C(Nc1cccc(-c2csc(Nc3ccc(Cl)cc3)n2)c1)c1ccccc1	u	u
CC(=O)Nc1ccc(CN2CCN(CCC(C)C)C(CCO)C2)cc1 (centres undefined)	-2%	-14%
FC(F)(F)c1cccc(N2CCN(CC3CC=CCC3)CC2)c1 (centres undefined)	x	-5%
O=C(COC(=O)CNS(=O)(=O)c1ccc(F)c(F)c1F)NCCc1ccccc1	-6%	-6%
COC(=O)c1ccc(OC(=O)CCN2c3ccccc3Sc3ccccc32)cc1	-16%	4%
COc1ccccc1CNC(=O)C1CC(c2ccccc2[N+](=O)[O-])=NO1 (centres undefined)	-5%	-15%
NC(=NCc1ccco1)NC(=O)c1ccc(Cl)cc1	-22%	-7%
CC(=O)Nc1ccc(S(=O)(=O)NCC(=O)NCCc2ccc(S(N)(=O)=O)cc2)cc1	-4%	8%
CN(C)C=NC(=O)/C(C#N)=C/c1ccccc1	-9%	2%
Cc1cc(C(=O)N2CCCC(C(=O)c3cccc(C(F)(F)F)c3)C2)nc(C)n1 (centres undefined)	-7%	0%
CCSc1nnc(NC(=O)COc2cccc3ccccc23)s1	-11%	-1%
CN(C)C(C)(C)C#CCC(c1ccccc1)c1ccccc1	u	-16%
Carrying on.
SMILES	Vaccinia mCherry	Vaccinia Venus
CCn1cc(C(=O)NCCc2ccc(Cl)cc2)c(=O)c2cc(S(=O)(=O)N3CCC(C)CC3)ccc21	-30%	-13%
CCOc1ccc(NC(=O)C2(c3cccs3)CCOCC2)cc1	-2%	2%
Cc1cc(C(=O)Nc2ccccc2-c2nc(CNC(=O)c3cscn3)c(C)o2)c(C)o1	-10%	0%
O=C(CCCCCNC(=O)c1ccccc1)N/N=C/c1ccc(F)cc1	-5%	-11%
Cc1ccc(Nc2ncnc3c2cnn3-c2ccc(C)cc2)cc1	0%	-13%
O=C(O)c1cc(-c2ccco2)nc2ccccc12	i	-6%
CO/N=C/c1cccn1-c1nccc(OC)c1C#N	i	-2%
CC(NCCC(c1ccccc1)c1ccccc1)c1ccccc1 (centres undefined)	u	u
O=C(O)c1cccc(-n2nnnc2SCc2ccccc2Cl)c1	-4%	-10%
CCn1c(-c2ccccc2F)nc2cc(C(=O)N3CCCC(CO)C3)cc(NC(C)=O)c21 (centres undefined)	-7%	4%
CCC(CO)Oc1cc(NCc2ccc(O)cc2)c2ncn(C(C)C)c2c1 (centres undefined)	u	-3%
CS(=O)(=O)N(CC(=O)NC1CCCCC1)c1cccc(Cl)c1	-3%	-7%
O=C(CN1C(=O)c2ccccc2C1=O)Nc1cccc2cccnc12	-14%	7%
CCS(=O)(=O)N1CCN(C2CCC(C)CC2)CC1 (centres undefined)	-18%	-10%
O=C(c1cccc(Cl)c1)C1CCCN(Cc2ccon2)C1 (centres undefined)	i	1%
Cc1c(-n2cccc2C=O)cccc1[N+](=O)[O-]	-10%	-16%
COc1cccc(C2(O)CCSCC2CN(C)C)c1 (centres undefined)	i	-6%
COc1cc(Cl)c(C)cc1Nc1c2c(nc3ccccc13)CCC2	u	-28%
COc1ccccc1NC(=O)c1ccc(NC(=O)COC(=O)c2cccnc2Cl)cc1	-1%	-7%
CCOC(=O)c1cnc2ccc(C(=O)OC)cc2c1NCCc1ccc(OC)c(OC)c1	-24%	-8%
O=C(CN1C(=O)CCC1=O)Nc1nc(-c2cccs2)cs1	x	4%
COc1cc2cc(CNc3ccccc3)c(=O)n(CC(=O)Nc3ccc(C)c(Cl)c3)c2cc1OC	-9%	-1%
COc1ccc(NC(=O)CSc2nc3n[nH]c(C)c3c(=N)n2-c2ccc(Cl)c(C)c2)cc1OC	u	u
COc1ccc(C(=O)CSc2c(C(C)C)cnc3c2c(=O)n(C)c(=O)n3C)cc1	-16%	-15%
C=CCSC1=N/C(=C\c2cc(OCC)c(OC(C)=O)c([N+](=O)[O-])c2)C(=O)S1	-16%	-1%
Cc1ccc(C(=O)N/C(=C\c2ccc(-c3cc(Cl)ccc3Cl)o2)C(=O)NCc2cccnc2)cc1	x	u
O=C(Nc1ccn(CCCNCc2ccc3c(c2)OCO3)c(=O)n1)OCc1ccccc1	i	-17%
O=C(Cn1ccc(NC(=O)OCc2ccccc2)nc1=O)NCCCn1ccnc1	-10%	4%
Nc1c(Cl)cc(-c2cn(CCC(=O)O)c(-c3ccc(Cl)nc3)n2)cc1Cl	-1%	-2%
Cc1[nH]c2ccccc2c1CN1CCc2ccccc2C1	-16%	-7%

Assay outcomes deposited in PubChem BioAssay by National Center for Advancing Translational Sciences (NCATS).
